Bioassay records (PubChem BioAssay)
PABP FP inh – blocks human PABP binding to poly(A) RNA; P11940; hit rate 1% among 290,000; inhibition, % at 35 µM; AID 2014; fluorescence polarization;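 active = 50% or more with normal probe brightness, or confirmed in later tests; inconclusive = above 50% with abnormal brightness, or retests that disagree; inactive = below 50% or failed in later tests; about a fifth of its hits are not listed in these tables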;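 also: calls also rest on retests at 20 µM and on dose response follow-up; controls were probe without protein and protein plus probe with vehicle; some compounds called inactive have numbers as strong as hits; many hits fall short of the cut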
Target sequence (P11940 whole entry, looked up): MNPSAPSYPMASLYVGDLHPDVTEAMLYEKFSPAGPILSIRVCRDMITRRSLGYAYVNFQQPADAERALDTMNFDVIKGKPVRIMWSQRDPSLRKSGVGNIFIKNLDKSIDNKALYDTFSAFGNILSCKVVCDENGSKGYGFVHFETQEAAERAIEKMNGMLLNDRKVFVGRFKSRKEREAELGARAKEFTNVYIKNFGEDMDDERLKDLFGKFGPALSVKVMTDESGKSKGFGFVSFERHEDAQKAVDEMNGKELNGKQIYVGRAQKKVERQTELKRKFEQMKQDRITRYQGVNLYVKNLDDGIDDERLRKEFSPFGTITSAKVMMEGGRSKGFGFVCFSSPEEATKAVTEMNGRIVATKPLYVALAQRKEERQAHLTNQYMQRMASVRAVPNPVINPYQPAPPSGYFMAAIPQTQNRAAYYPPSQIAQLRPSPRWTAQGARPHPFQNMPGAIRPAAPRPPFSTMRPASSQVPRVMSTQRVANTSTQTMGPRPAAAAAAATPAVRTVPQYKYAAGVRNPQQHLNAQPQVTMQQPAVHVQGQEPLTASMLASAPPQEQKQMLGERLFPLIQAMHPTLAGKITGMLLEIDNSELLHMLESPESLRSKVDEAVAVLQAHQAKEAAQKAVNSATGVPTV
Yeast UUG start – modulators of start codon recognition fidelity in yeast; S. cerevisiae UUG-firefly luciferase reporter, luminescence/redox ratio; activity score, % at 18.7 µM; hit rate 0.13% among 350,000; AID 602363;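 active = replicate mean at a twofold rise or more, about +100% in these data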;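 also: firefly luciferase made from a UUG start codon reports start codon fidelity; reporter light over untreated wells divided by growth signal over untreated wells; some hits fall short of that in this replicate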
Env fusion inh – inhibitors of HIV Env-mediated cell fusion | HeLa-JRFL Env/CEM21 cell fusion, luciferase | inhibition, % at 12.3 µM | hit rate 1.1% among 360,000 | AID 651610;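 active = mean replicate inhibition score of at least 50 and every replicate individually at or above 50; inconclusive = only one of the two criteria met; inactive = mean below 50 and not all replicates reaching 50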;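 also: 0% = plate neutral controls and 100% = maraviroc near 300 nM; one replicate is shown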
eIF4H inh – inhibitors of RNA binding by human eIF4H; Q15056; eIF4H fluorescence polarization binding assay; inhibition, % at 35 µM; hit rate 0.94% among 290,000;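 active = 50% or more with normal probe brightness, or confirmed in later tests; inconclusive = above 50% with abnormal brightness, or retests that disagree; inactive = below 50% or failed in later tests; about a fifth of its hits are not listed in these tables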;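 also: calls also rest on retests at 20 µM and on dose response follow-up; 0% = protein and probe with vehicle and 100% = probe without protein; strong numbers were not always called active; many hits fall short of the cut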
Rce1 inh – yeast Ras-converting enzyme inhibition; AID 2563; yeast membranes, quenched prenylated peptide cleavage fluorescence; calls only; hit rate 0.27% among 290,000; Q03530;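 active = fall in fluorescence gain of 50% or more versus controls, with final raw signal at or below 3038400; inconclusive = same 50% fall but final raw signal above 3038400; inactive = fall in fluorescence gain under 50%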;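 also: plate controls were neutral control wells for no effect and wells lacking membranes for full effect; tested at 10 µM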
Target sequence (Q03530 whole entry, looked up): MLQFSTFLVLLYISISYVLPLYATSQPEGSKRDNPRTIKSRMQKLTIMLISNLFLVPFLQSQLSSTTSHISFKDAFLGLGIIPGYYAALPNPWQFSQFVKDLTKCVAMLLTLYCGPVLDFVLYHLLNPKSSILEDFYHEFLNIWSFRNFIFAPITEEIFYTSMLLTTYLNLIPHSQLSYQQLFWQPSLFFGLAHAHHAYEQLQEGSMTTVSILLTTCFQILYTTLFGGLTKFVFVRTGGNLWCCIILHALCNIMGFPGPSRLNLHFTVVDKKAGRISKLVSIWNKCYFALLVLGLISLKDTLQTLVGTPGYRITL
MT1-MMP act inh – MT1-MMP (human) activation inhibition; HT1080 RFP-PRO-GFP cells, GFP/RFP ratio fluorescence, overnight; percent of plate control window, DMSO zero; GFP/RFP ratio change, % at 20 µM; hit rate 0.061% among 360,000;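 active = GFP/RFP ratio change of at least 30% with cell ATP level not reduced by more than half and red fluorescence within 50% of control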; also: strong numbers were not always called active
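Assay system – RFP-PRO-GFP reporter HT1080 cells · Compound dosing – single dose of 20 µM compound, 1% DMSO final · Incubation – overnight compound exposure at 37 °C · Measure – GFP/RFP fluorescence ratio · Benchmarks – DMSO wells and RFP-L50D-GFP cells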
CSC inhib – cancer stem cell inhibition | inhibition, % at 7.5 µM | AID 2717 | cancer stem cell-like cells viability, luminescence | hit rate 1.1% among 300,000;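 active = mean at 75% or more and at least half the replicates too; inconclusive = mean and replicates disagree; tested in HMLE shEcad cells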;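 also: 0% = median of negative and 100% = median of positive control wells; the first replicate is given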
eIF4H inh retest – also measured in eIF4H inh; calls as there; inhibition, %; compound at 20 µM; confirmation average;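 mean of two retest wells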
PABP FP inh retest – recorded beside PABP FP inh, whose call it bears; inhibition, %; compound at 20 µM; confirmation repeats;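 mean of two retest wells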
MT1-MMP act inh RFP – further read-out of MT1-MMP act inh, marked with its call; RFP signal change, %; measured here: RFP expression control read;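 0 = vehicle wells; hits needed this value within 50% of zero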
* = called active by the depositor; i = inactive; ? = inconclusive; . = not tested or not shown.

Start of the listing, in advance (2 entries):
SMILES	PABP FP inh	Yeast UUG start	Env fusion inh	eIF4H inh	Rce1 inh	MT1-MMP act inh	MT1-MMP act inh RFP	CSC inhib	others
C/C(NC(=O)c1cccs1)=C1\C(=O)C[C@@H]2[C@H]1C2(C)C	-7.7	18.2	.	-8.9	i	-3.0	-11.4	.
COCCCNC(=O)C(=O)C1C(=O)Nc2ccccc21 (stereo not drawn)	7.0	.	-16.9	10.7	i	-0.1	5.9	-10.6

Results, from the first entry:
SMILES	PABP FP inh	Yeast UUG start	Env fusion inh	eIF4H inh	Rce1 inh	MT1-MMP act inh	MT1-MMP act inh RFP	CSC inhib	others
C/C(NC(=O)c1cccs1)=C1\C(=O)C[C@@H]2[C@H]1C2(C)C	-7.7	18.2	.	-8.9	i	-3.0	-11.4	.
COCCCNC(=O)C(=O)C1C(=O)Nc2ccccc21 (stereo not drawn)	7.0	.	-16.9	10.7	i	-0.1	5.9	-10.6
CC(=O)Nc1ccc(NC(=O)C(C)OC(=O)/C=C/c2cnc3ccccc3n2)cc1 (stereo not drawn)	0.7	.	13.4	-2.0	i	-3.1	-3.9	.
O=C(O)c1ccc(N/N=C/c2cccc3cccnc23)cc1	8.8	-14.2	-7.3	-3.3	i	4.4	-0.4	-5.2
Clc1ccc2nc(-c3ccccn3)c(Nc3ccc4c(c3)OCO4)n2c1	-1.3	.	-24.6	14.7	i	4.5	-1.9	21.8
Cc1ccnc(NC(=O)CCC(=O)N(CC(=O)NC(C)(C)C)c2ccc(F)c(Cl)c2)c1	-9.3	.	0.1	-9.5	i	-1.1	0.1	-2.5
CN1CC(=O)N2[C@H]3c4ccccc4OC[C@@H]3[C@H](c3ccccc3)[C@]2(C)C1=O	.	-18.8	-1.5	.	.	0.2	3.2	-21.3
O=C(OCc1ccccc1)N1CCC2CC1c1ccc(-c3cccc(F)c3)cc12 (stereo not drawn)	.	-20.3	39.2	.	.	0.0	-3.6	.
COc1ccc(CNC(=O)C2CCN(C(=O)c3ccco3)CC2)cc1	-7.1	-7.7	1.4	10.6	i	-1.8	1.5	-8.9
Cc1oc(C(C)(C)C)c(CN2CCCC2)c1C(=O)O	6.2	-15.4	1.2	4.9	i	-1.4	0.0	-25.4
O=C(NC(=S)Nc1cc([N+](=O)[O-])ccc1Cl)c1ccccc1	1.6	-38.9	.	-4.4	i	-7.5	-5.0	-9.6
O=C(c1cc(-c2ccco2)on1)N1CCN(c2ccccc2)CC1	-7.5	27.6	-2.2	4.1	i	0.5	-0.1	84.4*
COc1ccccc1CNC(=O)c1cccc(-c2ccc(C)c3ccccc23)n1	0.5	.	47.7	-2.7	i	.	.	44.0
COc1ccc(CCc2nnc(CCC(=O)NCc3ccc4ncccc4c3)o2)cc1	-7.7	-11.8	9.5	-8.3	i	-1.2	-0.8	-16.5
CCN(CC(=O)NCc1ccc(Cl)cc1)CC(=O)Nc1ccc(C(N)=O)cc1	50.5	.	0.0	0.4*	i	5.6	5.7	-11.8	eIF4H inh retest=94.6*;PABP FP inh retest=37.9
Cn1nc(C(C)(C)C)cc1NC(=O)C1(C)CCN1C(=O)C1(c2ccccc2)CCCC1 (stereo not drawn)	.	-10.4	14.8	.	.	-0.2	-2.5	.
Cc1ccc2oc(-c3ccc(C)c(NC(=S)NC(=O)c4cccs4)c3)nc2c1	-2.8	.	-117.6	-4.0	i	-2.1	-2.1	48.8
O=C1NC(=S)N/C1=C\c1ccccc1OCc1ccc(C(=O)O)cc1	12.6	-13.2	17.6	-2.8	i	0.4	3.7	1.6
CN1CCN(C(=O)CCNC(=O)Cn2ccc3ccccc3c2=O)CC1	-0.2	-16.7	-100.8	3.7	i	0.2	2.7	-2.9
O=C1C=C(NCc2ccc3c(c2)OCO3)CC(c2ccccc2)C1 (stereo not drawn)	0.4	.	-7.5	-1.4	i	.	.	-8.6
CSc1nc(N)nc2c1ncn2CC(=O)Nc1ccc(C)c(C)c1	.	-15.2	?	.	.	-3.8	-22.2	15.1
CCOC(=O)C1CSC(CC(=O)Nc2ccc(OCC)cc2)C(=O)N1 (stereo not drawn)	-2.4	-7.4	.	-0.4	.	8.4	4.9	-7.7
Cc1nnnn1/C(=C\c1ccccc1)C(=O)OCC(=O)NC1CCCCC1	.	-10.0	38.8	.	i	-7.1	-13.1	24.8
CCN(CC)c1ncnc2c1ncn2[C@H]1CN(C2CCCC2)C[C@@H](CO)O1	.	7.1	13.3	.	.	-4.8	4.7	.
COc1c(C)cc(C(=O)C2CCCN(C(=O)Cn3nc(C)nc3C)C2)cc1C (stereo not drawn)	-9.3	-4.1	-9.6	-13.5	i	-6.2	-4.6	-4.7
CN(C(=O)COC(=O)c1ccc(Cl)nc1)c1c(N)n(Cc2ccccc2)c(=O)[nH]c1=O	.	-9.1	.	.	.	1.0	2.0	-8.1
COc1ccc(-c2csc(NC(=O)c3cccc(N4C(=O)CCC4=O)c3)n2)cc1C	-7.5	-15.2	.	-10.0	i	3.5	-3.5	0.5
CCN(CC)C(=O)c1ccc(-c2nnc(OC)c3ccccc23)cc1	-7.6	.	3.2	-1.9	i	-2.4	-4.1	-3.7
CCOc1ccccc1NC(=O)CSc1nnnn1-c1ccc(C(=O)OC)cc1	-4.1	-18.9	.	3.0	i	2.7	1.8	-13.2
CCN(CC)CCN(C(=O)c1ccc(C(=O)c2ccccc2)cc1)c1nc2c(OC)cccc2s1	8.3	-2.0	-4.1	1.5	i	-3.1	2.5	-4.0
CCC(CO)Oc1cc(NCc2ccc(C)cc2)c2ncn(C(C)C)c2c1 (stereo not drawn)	.	-16.8	19.6	.	.	-3.6	1.3	5.5
O=C1CCCCCN1Cc1ccccc1	4.5	-20.0	.	9.6	i	-1.0	1.2	-2.0
Cc1sc(NC(=O)c2cccs2)c(C(N)=O)c1C	19.1	.	-294.2	-8.1	.	4.2	1.7	-4.8
CCCCN1CCc2c(c3ccccc3n2Cc2ccccc2)C1	4.7	35.0	7.6	-1.8	i	1.3	1.6	-0.5
NC(=O)N/N=C/c1ccc(-c2cccc(C(F)(F)F)c2)o1	-3.1	.	-2.7	-6.6	i	-8.6	-7.1	8.4
CCOC(=O)C1=CN(Cc2cccc(F)c2)S(=O)(=O)N(C)C1c1ccccc1 (stereo not drawn)	.	3.5	16.6	.	.	-1.5	-10.0	.
Cc1ccc(F)cc1C(=O)N1CCCCC1c1cc(C(=O)NC(C)C)no1 (stereo not drawn)	.	1.8	-2.6	.	.	0.0	-1.3	.
COC(=O)CSc1nc2c(cnn2-c2ccc(Cl)cc2)c(=O)[nH]1	-3.1	65.1	6.5	-7.4	i	5.8	4.1	0.1
Cc1oc(-c2cccc(Cl)c2)nc1CS(=O)(=O)CC(=O)NCCN1CCOCC1	-3.6	9.7	4.8	-1.5	i	-2.9	0.2	-9.2
CC(NC(=O)/C(C#N)=C/c1ccc(C(=O)O)cc1)c1ccccc1 (stereo not drawn)	.	-10.9	-5.2	.	i	-7.0	-5.0	4.6
Cc1ccc(-n2c(C)csc2=N)cc1	-9.4	-11.5	-244.0	1.0	i	.	.	-12.3
COc1ccc(C(=O)Oc2cccc(/C=N/NC(N)=S)c2)cc1	-4.0	.	-22.8	-8.5	i	2.1	4.3	8.6
COC(=O)C1(C)CCCC2(C)C1CCC13OCC(CC21)C(O)(C(C)C)C3O (stereo not drawn)	.	7.2	5.2	.	.	1.4	0.8	.
C[C@@H]1COC(=O)[C@H](CC(=O)OC(C)(C)C)C/C=C\C[C@H](CC(=O)NCCO)C(=O)N1	.	-18.7	-13.3	.	.	-1.4	1.3	.
COc1ccc2cc1Oc1ccc(cc1)CC1c3c(cc(OC)c4c3Oc3cc5c(cc3O4)CCNC5C2)CCN1C (stereo not drawn)	-6.7	5.2	.	21.7	i	-18.6	-16.1	-2.7
Oc1ccc(N=Nc2nc(-c3ccccc3)c(-c3ccccc3)[nH]2)cc1	15.6	.	16.4	28.5	i	8.5	9.6	189.0*
COC(=O)CN1C(=O)S/C(=C/c2ccc(N3CCCCC3)o2)C1=O	17.5	-23.0	-106.2	16.1	i	-214.7	8.7	7.0
CN(C)c1ccc(C(=O)Nc2nc3c(s2)CCCC3)cc1	-24.3	-17.8	-69.5	-2.4	i	1.1	-6.2	3.1
COc1ccc(C2CC(c3cccs3)=Nc3ccccc3S2)cc1 (stereo not drawn)	-9.9	-31.2	.	-5.4	i	-1.2	-8.0	-6.5
Cc1cc(C(=O)COC(=O)c2ccc(O)cc2)c(C)n1CCc1ccc(F)cc1	-19.1	-4.4	2.9	-14.6	i	-3.2	-5.4	.
COc1cc(/C=C/C(=O)Nc2ccc(OC)c(S(=O)(=O)N3CCOCC3)c2)ccc1OCC#N	.	-7.4	0.9	.	.	0.6	-3.1	42.4
O=C(C1CC1)N1CCN(c2ccnc3cc(Cl)ccc23)CC1	-15.1	.	48.5	-5.3	i	-5.7	-2.4	-5.0
CCOC(=O)CSc1nnc(-c2c[nH]c3ccccc23)n1CC	-5.4	-15.9	22.8	-4.3	i	-2.6	1.9	-12.2
Cc1c(OC(C)C(=O)NCCN2CCOCC2)ccc2c(-c3ccccc3)cc(=O)oc12 (stereo not drawn)	-10.2	3.9	-0.6	-8.0	i	-2.2	1.1	3.1
CC(C)(C)c1ccc(S(=O)(=O)NCc2ccc(C(=O)N3CCCC3)cc2)cc1	-3.7	-14.8	.	-0.8	i	0.0	-2.2	-0.9
O=C(CSc1nc2c(c(C(F)(F)F)n1)CCc1ccccc1-2)NCc1ccc(F)cc1	0.3	-13.5	-19.9	0.4	i	1.4	1.7	-0.4
Cc1ccc(S(=O)(=O)N2CCC(C(=O)Nc3nnc(COc4ccccc4)s3)CC2)cc1	-6.7	-11.4	-9.8	-19.5	i	.	.	.
COc1ccc(NC(=O)C2CCCN(S(=O)(=O)c3ccc(Cl)cc3)C2)cc1OC (stereo not drawn)	0.5	-19.6	-4.6	-8.7	i	-5.4	-10.8	-14.0
O=C(c1ccc(OC2CCN(Cc3ccc(C(F)(F)F)cc3)CC2)cc1)N1CCCCC1	-9.4	8.5	9.8	-6.4	i	0.2	-12.3	1.3
CC(Sc1nnc(-c2ccco2)n1N)C(=O)NCC1CCCO1 (stereo not drawn)	.	-4.2	.	.	.	1.1	3.2	-5.6
More compounds follow:
SMILES	PABP FP inh	Yeast UUG start	Env fusion inh	eIF4H inh	Rce1 inh	MT1-MMP act inh	MT1-MMP act inh RFP	CSC inhib	others
CN(C)c1ccc(CNC(=O)C2CCN(S(=O)(=O)c3ccc4c(c3)CCCC(=O)N4)CC2)cc1	-1.7	-9.4	-3.1	4.7	i	1.8	-0.9	-14.2
CCCCCOC(=O)CSc1nc2c(c(=O)[nH]c(=O)n2C)n1Cc1ccc(Cl)cc1	-0.1	-8.2	10.6	-3.8	i	2.8	4.0	0.8
O=S(=O)([O-])CCC[n+]1c(/C=C\Nc2ccccc2)oc2ccc(-c3ccccc3)cc21	?	.	.	?	i	.	.	.
CCOc1cc(/C=N\NC(=O)c2ccc(NC(=O)CC)cc2)ccc1OC(=O)c1ccccc1	-4.1	-11.2	-44.6	-16.2	i	2.4	-9.1	29.6
Cc1cc2nc(NC(=O)C3(C)CCCN(C(C)C)C3)[nH]c2cc1C (stereo not drawn)	.	0.7	-7.0	.	.	-4.9	-3.3	.
COc1ccc(C2Nc3ccccc3NC3=C2C(=O)CC(C)(C)C3)cc1O (stereo not drawn)	?	-17.3	-43.4	?	i	-0.8	3.6	-26.2
C/C=C(\C)C(=O)NNC(=O)c1sc(-c2ccccc2)nc1C	-20.6	-12.9	8.4	-5.0	i	2.4	-8.1	-9.6

Only part of the results is shown, so the mix of outcomes need not match the whole.
